HGIII-sPLA2 inh: Blocks human group III sPLA2 activity | 370,000 compounds, 0.56% hits | AID 743126 | QFRET BODIPY PC-A2 liposome hydrolysis, fluorescence | Q9NZ20 | inhibition, % at 12.2 µM;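 active means inhibition above mean plus 3 SD of compounds lying within the high and low control bounds, cut at about 19% in these data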;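 further: 0% = median of test compound wells and 100% = no enzyme DMSO wells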
GC-A act: GC-A (human) enzyme activation | HEK293 GC-A cells, cGMP TR-FRET, EC30 ANP; 0% at EC30 ANP, 100% saturating ANP | activation, % at 10 µM | 370,000 compounds, 0.14% hits; in the data active means activation above about 40%
ARFGAP1 inh: rat ARFGAP1 inhibition | AID 651572 | Q62848 | 360,000 compounds, 0.26% hits | Arfgap1-stimulated ARF1 GTP hydrolysis, GDP FP detection | inhibition, % at 16.5 µM;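 active means inhibition above a per-plate limit, mean inhibition of low control wells plus 3 SD, cut at about 25% in these data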;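 further: 0% = DMSO wells with enzyme and 100% = wells lacking Arfgap1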
Target sequence (Q62848 1-136 limits assumed): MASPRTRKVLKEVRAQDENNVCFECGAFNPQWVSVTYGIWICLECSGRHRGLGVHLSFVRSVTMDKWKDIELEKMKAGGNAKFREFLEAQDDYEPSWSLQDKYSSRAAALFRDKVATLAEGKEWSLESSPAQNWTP
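material = rat Arfgap1 catalytic domain, aa 1-136 | also added = human ARF1(Δ1-17)-GTP substrate | compound dosing = one concentration, 16.5 µM, DMSO 1.26% | times = GTP hydrolysis reaction 2 h at 25 °C | measured by = FP, GDP Alexa 633 tracer displaced from anti-GDP antibody, 620/688 nm | evaluation = percent inhibition of Arfgap1-stimulated GTP hydrolysis | replication = single well per compound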
GC-B act: GC-B (human) receptor activation. P20594. 370,000 compounds, 0.11% hits. AID 1920062. HEK293-GC-B cells, CNP EC30, cGMP TR-FRET; 0% at EC30 CNP, 100% saturating CNP. activation, % at 10 µM;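 active means activation at 10 µM reaching about 35% in either raw or pattern-adjusted values, limit read from the data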
KLK7 zymogen act: activates the human kallikrein-7 zymogen. P49862. activation, % at 7 µM. purified proKLK7, EDANS-DABCYL substrate fluorescence; 100% is mature enzyme control, 0% vehicle. 370,000 compounds, 0.9% hits;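 active means activation above the mean of all tested compounds plus 3 SD, computed per campaign excluding outliers beyond control limits, cut at about 13% in these data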
Target sequence (P49862 whole entry, looked up): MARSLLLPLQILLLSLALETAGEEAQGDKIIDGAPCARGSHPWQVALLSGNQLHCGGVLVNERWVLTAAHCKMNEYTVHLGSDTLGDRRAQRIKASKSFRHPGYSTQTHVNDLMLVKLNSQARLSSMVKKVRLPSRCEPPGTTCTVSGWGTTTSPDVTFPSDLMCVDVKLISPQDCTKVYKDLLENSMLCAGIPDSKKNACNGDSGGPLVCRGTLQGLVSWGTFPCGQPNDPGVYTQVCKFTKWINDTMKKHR
* hit, by the source's call. This is a subset; the hit share may differ from the screen's.

[1] COc1cccc2c1C(=O)c1c(O)c3c(c(O)c1C2=O)CC(O)(C(C)=NNC(=O)c1ccc(Cl)c(Cl)c1)CC3OC1CC(N)C(O)C(C)O1 (stereo not given)
[2] CC(=O)N1CCN(C(c2ccccc2)c2ccccc2)CC1
[3] N#Cc1c(-c2ccc(Cl)cc2)c(-c2ccc(Cl)cc2)nn(CCO)c1=O
[4] Cn1c(=O)n(C)c2cc(N3CCCCC3)c(NC(=O)c3ccccc3)cc21
[5] O=C(O)[C@@H]1CCCC[C@@H]1C(=O)N1CCc2ccccc2C1CN1C(=O)c2ccccc2C1=O (stereo not given in full)
[6] O=S(=O)(c1ccc(F)cc1)n1cnc2ccccc21
[7] CCN1CCN(C(=O)c2ccc(NS(=O)(=O)c3ccccc3)cc2)CC1
[8] CCCC(=O)c1ccc(O)cc1O
[9] Nc1cc(=O)[nH]c(SCc2ccccc2)n1
[10] CCCCCC(CC(=O)NO)C(=O)NC(C(=O)N1CCCC1CO)C(C)C (stereo not given)
Assay by compound,1,2,3,4,5,6,7,8,9,10
HGIII-sPLA2 inh,-118,11,-4,-2,-3,-4,7,0,3,-2
GC-A act,-23,-5,-14,-32,-2,-1,2,5,2,1
ARFGAP1 inh,2,10,-7,-3,-4,-13,7,5,-1,0
GC-B act,-4,-3,-6,-14,-1,1,6,0,6,10
KLK7 zymogen act,2.2,-0.4,-0.4,5.3,-0.4,0.2,0.6,-0.9,-0.4,0.1

Values in list order from above:
Compounds 4–10 in GC-B act: -14, -1, 1, 6, 0, 6, 10
Compounds 4–10 in ARFGAP1 inh: -3, -4, -13, 7, 5, -1, 0
Compounds 4–10 in HGIII-sPLA2 inh: -2, -3, -4, 7, 0, 3, -2

Further entries
[11] O=C(O)c1cc(S(=O)(=O)N2CC=C(c3ccccc3)CC2)ccc1O
[12] Cc1nc2ccccc2c(-c2ccccc2)c1CC(=O)O
[13] C=C(CN(C)C)C(=O)c1cc(OC)c(OC)cc1OC
[14] Oc1cc2c(c(Cl)c1O)CCNCC2c1ccccc1 (stereo not given)
[15] c1ccc(-c2ccc(-c3cn4c(n3)CCC4)cc2)cc1
[16] N#Cc1ccc(OCC(O)CN2CCC(C(O)(c3ccccc3)c3ccccc3)CC2)cc1 (stereo not given)
Assay by compound,11,12,13,14,15,16
HGIII-sPLA2 inh,-42,14,0,-14,-4,-26
GC-A act,1,0,16,-7,18,-6
ARFGAP1 inh,-12,-3,-6,-3,-6,3
GC-B act,-4,1,2,-5,1,-10
KLK7 zymogen act,-0.5,0.1,0.3,-0.2,-0.2,0.3

Taken from above.
CCCC(=O)c1ccc(O)cc1O – KLK7 zymogen act = -0.9
c1ccc(-c2ccc(-c3cn4c(n3)CCC4)cc2)cc1 – HGIII-sPLA2 inh = -4

Sorted by value in KLK7 zymogen act (largest number first): three from the list above.
No. | SMILES | HGIII-sPLA2 inh | GC-A act | ARFGAP1 inh | GC-B act | KLK7 zymogen act
13 | C=C(CN(C)C)C(=O)c1cc(OC)c(OC)cc1OC | 0 | 16 | -6 | 2 | 0.3
12 | Cc1nc2ccccc2c(-c2ccccc2)c1CC(=O)O | 14 | 0 | -3 | 1 | 0.1
11 | O=C(O)c1cc(S(=O)(=O)N2CC=C(c3ccccc3)CC2)ccc1O | -42 | 1 | -12 | -4 | -0.5

In a second layout: entries from further up.
| no. | compound | HGIII-sPLA2 inh | GC-A act | ARFGAP1 inh | GC-B act | KLK7 zymogen act |
| --- | --- | --- | --- | --- | --- | --- |
| 16 | N#Cc1ccc(OCC(O)CN2CCC(C(O)(c3ccccc3)c3ccccc3)CC2)cc1 (stereo not given) | -26 | -6 | 3 | -10 | 0.3 |
| 10 | CCCCCC(CC(=O)NO)C(=O)NC(C(=O)N1CCCC1CO)C(C)C (stereo not given) | -2 | 1 | 0 | 10 | 0.1 |

Screening data as filed in PubChem BioAssay.
